CDC25B-CDK2 inh – human CDC25B-CDK2/CyclinA binding inhibition | P30305+P24941 | HTRF CDC25B-CDK2/CyclinA binding, anti-His/anti-Flag; active compounds read high | z-score (concentration not given with the values) | 94,000 compounds, 0.72% hits;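 further: score is relative to mean and SD of negative controls; strong numbers were not always called active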
TAR Tat displ – HIV-1 TAR-Tat binding disruption; AID 1259389; HIV-1 TAR RNA, Tat peptide displacement FRET; active compounds read high; 100,000 compounds, 0.6% hits; z-score (test concentration not listed);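 further: score is relative to mean and SD of negative controls; some compounds called inactive have numbers as strong as hits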
The depositor's hits bear a star; · = no result given.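 How the source made its calls: active means z-score from 3 up in half or more of its runs; inactive means the rest.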

A first look:
Values run as follows: CDC25B-CDK2 inh | TAR Tat displ
CC(C)c1ccc2occ(CC(=O)N(Cc3ccc(F)cc3)C3CCS(=O)(=O)C3)c2c1 (stereo unspecified)
 : -3 | 0.32
O=C(CSc1nc2ccccc2c(=O)[nH]1)c1ccccc1
 : -1.1 | -2.2

The whole of this part, previewed entries included:
Values run as follows: CDC25B-CDK2 inh | TAR Tat displ
CC(C)c1ccc2occ(CC(=O)N(Cc3ccc(F)cc3)C3CCS(=O)(=O)C3)c2c1 (stereo unspecified)
 : -3 | 0.32
O=C(CSc1nc2ccccc2c(=O)[nH]1)c1ccccc1
 : -1.1 | -2.2
CC1=C(C(=O)OC(C)C)C(c2cccc(C)c2)n2c(nc3ccccc32)N1 (stereo unspecified)
 : -0.86 | -0.05
CCC(C)(C)Nc1c(O)c(=O)c1=O
 : · | -0.85
O=C(C1=C(O)C(=O)N(Cc2cccnc2)C1c1ccc(F)cc1)c1ccco1 (stereo unspecified)
 : -2 | 0.61
COc1ccc(C(=O)CC2(O)C(=O)N(CCc3ccccc3)c3ccccc32)c(OC)c1 (stereo unspecified)
 : 0.01 | 0.26
CSC(=NS(=O)(=O)c1ccc(C)cc1)SC
 : -0.5 | ·
COC(=O)c1sccc1Oc1ccc(Cl)cc1NC(=O)c1ccc(Cl)cc1
 : -2.9 | ·
O=C1c2[nH]nc(-c3ccccc3O)c2C(c2ccccc2)N1CCc1ccccc1 (stereo unspecified)
 : 0.39 | 0.5
CCN(CC)CCN(C(=O)C1COc2ccccc2O1)c1nc2c(F)cc(F)cc2s1 (stereo unspecified)
 : · | 1.1
Cc1ccc(C2=NNC(=O)C(N)C2)cc1 (stereo unspecified)
 : · | -0.39
Cc1nn(-c2ccccc2)nc1CNS(=O)(=O)c1c(C)nn(C)c1C
 : -1 | ·
O=C(CSc1nc(-c2ccccc2)nc2cc(=O)[nH]n12)Nc1ccc(F)c(Cl)c1
 : · | 0.45
Cc1cc(-c2ccc(C(C)C)c(S(=O)(=O)N3CCN(c4ccccc4)CC3)c2)on1
 : · | 0.43
O=S(=O)(NC1CCCCCC1)c1cccc2cccnc12
 : -0.87 | ·
O=C1CC(=O)Nc2cc(S(=O)(=O)NCc3cccs3)ccc2N1
 : -2.4 | -1.2
Cc1c(C(=O)OC2CCCC2)[nH]c2c1C(=O)CC(c1cccs1)C2 (stereo unspecified)
 : -1.8 | ·
Cc1[nH]c2c(F)cc(F)cc2c(=O)c1I
 : -2.2 | ·
COc1ccc(OC)c(N2C(=O)c3ccncc3C2=O)c1
 : · | 1.7
Cc1cc(C)n(Cc2c(C(=O)NCc3ccco3)noc2C)n1
 : · | 0.78

2 compounds drawn at random from those above:
Values run as follows: CDC25B-CDK2 inh | TAR Tat displ
O=C1c2[nH]nc(-c3ccccc3O)c2C(c2ccccc2)N1CCc1ccccc1 (stereo unspecified)
 : 0.39 | 0.5
Cc1cc(-c2ccc(C(C)C)c(S(=O)(=O)N3CCN(c4ccccc4)CC3)c2)on1
 : · | 0.43

The listing continues.
Values run as follows: CDC25B-CDK2 inh | TAR Tat displ
CCc1nnc2c3ccccc3nc(Nc3cc(OC)ccc3OC)n12
 : · | 2.4
CCC(C)NC(=O)NC1(C(F)(F)F)Oc2ccc(Cl)cc2O1 (stereo unspecified)
 : 0.03 | ·
CCCCCCn1c(=O)c2c(nc3n2CCN3c2ccccc2)n(C)c1=O
 : · | 1.9
O=C1c2cccnc2C(Nc2ccc(F)cc2)N1Cc1ccc(F)cc1 (stereo unspecified)
 : 1 | 1.1
FC(F)(F)c1cnc(NN=C2CCSCC2)c(Cl)c1
 : -1.4 | ·
COc1cc(C2Nc3cc(C)c(C)cc3NC3=C2C(=O)CC(C)(C)C3)ccc1OC(C)=O (stereo unspecified)
 : -1.3 | -1.1
O=C(CSc1ccc(-c2ccccn2)nn1)Nc1cccc(Cl)c1
 : · | 0.68
COc1ccc(C2C(C(=O)OCC3CCCO3)=C(C)NC3=C2C(=O)CC(C)(C)C3)cc1OC (stereo unspecified)
 : -1.3 | -0.39
CCN(CC)c1ncnc2c1cnn2-c1ccc(Cl)cc1
 : -1.8 | ·
CCCC(C(N)=O)C1=NC2(CCCCC2)Cc2ccccc21 (stereo unspecified)
 : -0.73 | ·
CCc1nn(CC(=O)N2CCCCC2)c(=O)c2cc3sccc3n12
 : -0.54 | -0.31
Cc1cc2c(cc1NC(=O)C(C)(C)C)n(C)c(=O)n2C
 : · | 1.2
O=c1[nH]nc2c3cc(F)ccc3n(Cc3ccc(F)cc3)cc1-2
 : -0.86 | 1.4
COCCNc1cc(N2CCN(C3CCCCC3)CC2)c2noc3c2c1C(=O)c1ccccc1-3
 : -0.67 | 8.1*
NC1=NC(c2ccncc2)n2c(nc3ccccc32)N1 (stereo unspecified)
 : 2.9 | -0.02
Brc1ccc(-c2nc(-c3cccnc3)no2)cc1
 : · | 2
O=C(Cc1ccccc1)N1CCc2ccccc21
 : -1.1 | 0.28
Cn1c(=O)c(=O)n(C)c2cc(NS(=O)(=O)c3cccs3)ccc21
 : · | 0.52
O=C1Cc2cc(S(=O)(=O)Nc3ccc4c(c3)OCCO4)cc3c2N1CCC3
 : · | 1.4
Cn1c(=O)n(CC(=O)O)c(=O)c2c1nc1n2CCCN1c1ccc(Cl)cc1
 : -0.38 | -0.57
COc1ccc(Nc2nc3ccccc3c3nncn23)c(OC)c1
 : -2.1 | 1
O=C1CN(C(=O)CCC2CCCC2)C(c2ccc(F)cc2)c2cc(Br)ccc2N1 (stereo unspecified)
 : -0.62 | ·
CC1Cc2ccccc2N1C(=O)C1CCN(S(=O)(=O)c2cccc3nonc23)CC1 (stereo unspecified)
 : · | 1.8
Nc1ccccc1C(=O)NCCc1ccccn1
 : -1.5 | ·
CCOC(=O)c1ccc(NC2SC(=O)N(c3ccc(C)cc3)C2=O)cc1 (stereo unspecified)
 : -4.1 | ·
O=C(CC1=NS(=O)(=O)c2ccccc2N1)Nc1ccc(F)c(F)c1
 : · | 0.16
O=C(Nc1ccc(Br)cc1F)C1CC2CCCN2C12C(=O)Nc1ccccc12 (stereo unspecified)
 : · | -3.5
CC(C)CNc1cc(N2CCCC2)c2noc3c2c1C(=O)c1ccccc1-3
 : -1.2 | 0.45
O=C1CC(c2ccc(Cl)cc2)c2scc(-c3ccccc3)c2N1 (stereo unspecified)
 : · | 1.9
CC(=O)Nc1c2n(c3ccccc13)CC(C)(C(=O)NC1CCCC1)N(CCC1=CCCCC1)C2=O (stereo unspecified)
 : · | 2.2
CC(C)(C)NC1CC(=O)N(c2ccc(Cl)cc2)C1=O (stereo unspecified)
 : -0.58 | -1.7
Cc1nc2c(C)cccn2c1C(O)c1ccccc1 (stereo unspecified)
 : -1 | 1.4
O=C(NC(COC(=O)OCc1ccccc1)C(=O)O)OCc1ccccc1 (stereo unspecified)
 : -0.55 | ·
CC(C)CCNC(=O)C1(C)CCC(=O)N1CCCN1CCOCC1 (stereo unspecified)
 : -0.56 | -0.37
c1ccc(CN2CN(CC3CCCO3)c3nc4ccccc4n3C2)cc1 (stereo unspecified)
 : -1.1 | 0.17
CCOC(=O)c1cc(C)n(CC2CCC(C(=O)Nc3nccs3)CC2)c1C (stereo unspecified)
 : · | -0.4
CCc1ccc(-c2cn3nc(CC(C)C)sc3n2)cc1
 : 1.4 | 1.2
O=C(Nc1cccc(Cl)c1)C1CCCN1S(=O)(=O)c1cccc2nsnc12 (stereo unspecified)
 : -0.21 | 1.6
CN1CCN(C(=O)c2ccc3c(Cl)c4c(nc3c2)CCC4)CC1
 : -1.1 | 0.13
O=C(C1=C(NC2CCCCC2)c2ccccc2S1(=O)=O)N1CCOCC1
 : · | 0.71
C=CC#CC1(O)CC(C)N(C)CC1C (stereo unspecified)
 : -0.93 | 4.1
Cc1cc(C)cc(NC(=O)c2c(C)oc3nc(C)nc(N4CCCC4)c23)c1
 : · | 0.54
CCN1C(=O)C2(/C(=C(/O)c3ccc(C)cc3)C(=O)C(=O)N2CCOC)c2ccccc21 (stereo unspecified)
 : -1.1 | 1.9
COCCNS(=O)(=O)c1cc(F)ccc1CN1C(=O)c2cccnc2C1=O
 : · | 0.62
COc1ccc(-c2cc(C(F)(F)F)n3ncnc3n2)cc1OC
 : -0.94 | -0.86
Cc1cc2nc(CN3CCN(c4ncccn4)CC3)cc(=O)n2o1
 : · | 1.2
COc1ccc(S(=O)(=O)NCCc2csc3nc(-c4ccc(F)cc4)nn23)cc1F
 : · | 1.2
CC1CCN(C(CNC(=O)c2cc(-c3cccs3)on2)c2ccco2)CC1 (stereo unspecified)
 : -0.49 | -1.7
COc1ccc2c(c1)SC1=NS(=O)(=O)CCN12
 : 0.78 | 0.23
CCOC(=O)[C@H](CCc1ccccc1)N[C@@H](C)C(=O)N1[C@H](C(=O)O)C[C@@H]2CCC[C@@H]21
 : · | -0.19

Other structures
Values run as follows: CDC25B-CDK2 inh | TAR Tat displ
O=C(Cn1c(=O)n(Cc2ccco2)c(=O)c2sc3ccccc3c21)Nc1ccc(F)cc1
 : -1.8 | 0.57
CC1(C)Cc2nc3oc4c(=O)n(CCCc5ccccc5)cnc4c3cc2CO1
 : · | 0.74
O=C1CC(c2ccc(Cl)cc2)CC2=C1C(c1ccccc1F)Nc1ccccc1N2 (stereo unspecified)
 : 0.52 | ·
Cc1onc(-c2c(F)cccc2Cl)c1C(=O)OCc1sccc1-n1c(C)ccc1C
 : -0.79 | ·
CCc1nnc2c(NCc3cccnc3)nc3ccccc3n12
 : · | 0.77
COc1cc(C2C3=C(CCCC3=O)N(CC(=O)O)C3=C2C(=O)CCC3)cc(Br)c1OC
 : -2.1 | -0.48
O=S(=O)(c1ccc(Cl)cc1)n1cnc2ccccc21
 : -0.91 | 1.6
Cc1cn2c(=O)cc(COC(=O)c3ccc(Br)cc3)nc2s1
 : · | -1
CC(C)N1C(=O)CCC1C(=O)N1CCN(c2ccccn2)CC1 (stereo unspecified)
 : 0.57 | ·
O=C(O)c1ccc(N2C(=O)C3C4c5ccccc5C(c5ccccc54)C3C2=O)cc1Cl (stereo unspecified)
 : 1.7 | 0.97
Cc1cc2c(cc1S(=O)(=O)NCC(C)C)OCC(=O)N2
 : · | 1.8
Nc1ccccc1C(=O)N/N=C/c1cccnc1
 : -1.6 | ·
OC(CNC1CCCCC1)Cn1c2ccccc2c2ccccc21 (stereo unspecified)
 : -1.1 | 0.4
COc1ccc(NC(=O)N2c3cc(C)c(C)cc3C(C)=CC2(C)C)cc1OC
 : -1.3 | -5.2
COC(=O)c1ccc(Cn2c(SCc3ccccc3)nc3ccncc32)cc1
 : -1.8 | 2.9
CCOCCOC(=O)C(C)Oc1ccc2c(=O)c(Oc3cc(C)c(Cl)c(C)c3)coc2c1 (stereo unspecified)
 : -0.13 | -0.77
COc1ccc(OCCNC(=O)c2c(C)noc2-c2c(F)cccc2Cl)cc1
 : 0.07 | ·
CCN(CC)c1ccc(NS(=O)(=O)c2cc3[nH]c(=O)c(=O)[nH]c3cc2C)c(C)c1
 : · | 14*
COc1ccccc1N1CCN(c2cc(NCCO)c3c4c(onc24)-c2ccccc2C3=O)CC1
 : 6.7 | -5.1
COC(=O)C1=C(C)NC(c2c(O)ccc3ccccc23)C(C(=O)OC)=C1C (stereo unspecified)
 : -2.3 | 2.4
O=S(=O)(c1ccc(Oc2ccc(S(=O)(=O)N3CCCCCC3)cc2)cc1)N1CCCCCC1
 : -2.2 | ·
CC(=O)N1CCOc2ccc(S(=O)(=O)N3CCC(C(=O)N4CCc5ccccc54)CC3)cc21
 : · | 2
CC1CSc2ccc(S(=O)(=O)N(CCCN3CCOCC3)Cc3ccco3)cc2NC1=O (stereo unspecified)
 : · | 2.9
CC1CC(=O)Nc2cc(S(=O)(=O)NCc3ccccn3)ccc2S1 (stereo unspecified)
 : · | 1.1
CC1Cc2ccccc2N1C(=O)Cn1cnc(S(=O)(=O)N2CCOCC2)c1 (stereo unspecified)
 : · | -0.96
CCOC(=O)N1CCC(n2c(SCC(=O)c3ccccc3)nc3ccsc3c2=O)CC1
 : · | 1.4
c1ccc2c(NC3C4CC5CC(C4)CC3C5)nc(N3CCOCC3)nc2c1 (stereo unspecified)
 : 0.16 | ·
CCc1ccc2oc(C(=O)Nc3sc4c(c3C#N)CCCC4)cc(=O)c2c1
 : -1.9 | -0.2
CC1CN(C(=O)/C=C/c2cccc3ccccc23)CC(C)O1 (stereo unspecified)
 : -0.51 | ·
O=C1NC(=O)C(c2ccccc2)N1 (stereo unspecified)
 : -0.1 | ·
O=C(Nc1cccc2nsnc12)c1[nH]nc2c1COc1ccccc1-2
 : · | -4.6
Cc1cccc(C)c1NS(=O)(=O)c1cc2c3c(c1)C(C)C(=O)N3CCC2 (stereo unspecified)
 : · | -0.14
Cc1nn2c(-c3cccc(NS(=O)(=O)c4ccc(Cl)cc4)c3)nnc2c2ccccc12
 : -0.09 | 0.7
CCC1CCCCN1C(=O)Cn1c(=O)oc2cc(S(=O)(=O)N3CCCC3)ccc21 (stereo unspecified)
 : -0.76 | 0.24
COc1cc(C2C(C(=O)OCC3CCCO3)=C(C)NC3=C2C(=O)CC(C)(C)C3)cc(Cl)c1O (stereo unspecified)
 : -0.85 | 0.42
Cc1cc(NC(=O)CSc2nc(C3CCCCC3)nc3c2c(=O)n(C)c(=O)n3C)no1
 : · | 1.8
CC1CCN(c2oc(/C=C/c3cccs3)nc2C#N)CC1
 : -1.6 | -0.54

Entries of single compounds, quoted from the list:
Results for Cc1cc(NC(=O)CSc2nc(C3CCCCC3)nc3c2c(=O)n(C)c(=O)n3C)no1 = CDC25B-CDK2 inh = ·; TAR Tat displ = 1.8
Results for O=C(Nc1cccc2nsnc12)c1[nH]nc2c1COc1ccccc1-2 = CDC25B-CDK2 inh = ·; TAR Tat displ = -4.6
Results for CC1CCN(c2oc(/C=C/c3cccs3)nc2C#N)CC1 = CDC25B-CDK2 inh = -1.6; TAR Tat displ = -0.54

Assay outcomes from PubChem.
